# Screening results: PubChem BioAssay, National Center for Advancing Translational Sciences (NCATS)
# LASV entry inh: blocks Lassa virus binding to or entry into cells; 1.2% of 300,000 active; Lassa virus pseudotype entry inhibition, cell reporter; control for the full effect not named in the record; Potency, µM (highest dose often 37.9 µM), without a hit: at the top dose activity change, negative = inhibition, most hits filed as inhibitors; AID 540256; active means well fitted inhibition curve with a large enough effect; inconclusive means small, poorly fitted or top-dose-only effect, or effect the other way; inactive means flat fitted curve, though single readings scatter; tested in HEK293 cells; also: % is scaled to controls: 0 for no effect and ±100 for the full control effect; nearly all actives have a fitted effect of over 50% in size; luciferase read-out
# NS1 function inh: blocks influenza NS1 protein function | S. cerevisiae slowed by influenza A NS1, growth recovery by OD600 | 0.4% of 270,000 active | Potency, µM (series often up to 46.1 µM), without a hit: at the highest dose activity, positive = more growth | AID 2326; also: actives are rising curves; nearly all actives have a fitted effect of over 50% in size
#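 OD600 was taken as the measure of yeast growth restored by compound in an NS1-expressing S. cerevisiae strain. Cells had been washed out of glucose medium and diluted 1:100 into galactose -URA medium, pH 6.0.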
# Cruzain noTriton: inhibitors of Trypanosoma cruzi cruzain without detergent; Potency, µM, inactives show max response, negative = inhibition, usual class: inhibitors; P25779; purified cruzain, Z-FR-AMC fluorescence, no detergent; 2.3% of 200,000 active; active = well fitted curve in the direction sought with a large enough effect; inconclusive = small, poorly fitted or top-dose-only effect, or another doubt; inactive = no such curve, though single readings can be large; an effect the other way counts as inactive or inconclusive;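 also: plate controls were enzyme without inhibitor for no effect and buffer without enzyme for full effect; nearly all actives have a fitted effect of over 40% in size; top concentration of the series not given in the record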
# Target sequence (P25779 123-467 limits assumed): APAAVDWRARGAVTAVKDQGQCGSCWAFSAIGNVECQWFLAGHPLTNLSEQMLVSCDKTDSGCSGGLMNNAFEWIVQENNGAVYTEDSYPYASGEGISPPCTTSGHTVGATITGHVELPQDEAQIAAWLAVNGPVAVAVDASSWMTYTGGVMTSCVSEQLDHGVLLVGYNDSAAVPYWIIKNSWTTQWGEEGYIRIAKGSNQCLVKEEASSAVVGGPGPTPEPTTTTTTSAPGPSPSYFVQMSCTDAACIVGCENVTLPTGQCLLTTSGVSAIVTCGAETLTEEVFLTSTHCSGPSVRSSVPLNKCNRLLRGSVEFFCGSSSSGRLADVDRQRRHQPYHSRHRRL
#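 Purified cruzain at 1.5 nM, pre-incubated 15 min with compound at room temperature in 100 mM sodium acetate pH 5.5, 5 mM DTT, 0.00005% Triton X-100. Reaction started with 2 uM Z-FR-AMC; AMC fluorescence increase over 60 s gives rate.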
# Cruzain Triton: inhibitors of Trypanosoma cruzi cruzain with detergent. AID 1478. P25779. purified cruzain, Z-FR-AMC fluorescence, 0.01% Triton. Potency, µM, inactives show max response, negative = inhibition, most hits filed as inhibitors. 0.43% of 200,000 active; active = well fitted curve in the direction sought with a large enough effect; inconclusive = small, poorly fitted or top-dose-only effect, or another doubt; inactive = no such curve, though single readings can be large; an effect the other way counts as inactive or inconclusive;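 also: plate controls were neutral wells for no effect and buffer without enzyme for full effect; nearly all actives have a fitted effect of over 40% in size; top concentration of the series not given in the record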
#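 Detergent-containing run (0.01% Triton X-100) in acetate buffer pH 5.5 with 5 mM DTT: enzyme at 1.5 nM final, 15 min compound preincubation at room temperature, then 2 uM Z-FR-AMC substrate. Activity taken as 60 s fluorescence increase at 360/450 nm.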
# RE007 growth inh: less growth of the S. pombe RE007 Vpr strain; S. pombe RE007 Vpr strain, BacTiter-Glo ATP luminescence, 24 h; control for the full effect not named in the record; Potency, µM (titrated, usually from 92.2 µM), without a hit: at the highest dose activity change, negative = less growth; 0.21% of 360,000 active; AID 651644; active = well fitted falling curve with a large enough effect; inconclusive = small, poorly fitted or top-dose-only effect; inactive = no such curve, though single readings can be large or run the other way;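 also: % is scaled to controls: 0 for no effect and ±100 for the full control effect; nearly all actives have a fitted effect of over 50% in size; the assay follows cell death caused by Vpr and the record does not say whether a fall means rescue or toxicity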
#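 Fission yeast strain RE007, carrying one chromosomally integrated HIV-1 vpr copy, was seeded at OD 0.01 in PMG+AL medium with 23 nL pinned compound. After 24 h at 30 °C and 99% humidity, viability was read by BacTiter-Glo luminescence.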
# 2A StopGo: FMDV 2A StopGo reporter, luciferase signal; AID 1159524; 1.2% of 410,000 active; Potency, µM (doses to about 57.9 µM), for inactives: at the top dose signal change, negative = less light; human cells with a luciferase reporter of 2A StopGo recoding; control for the full effect not named in the record; active = well fitted falling curve with a large enough effect; inconclusive = small, poorly fitted or top-dose-only effect; inactive = no such curve, though single readings can be large or run the other way; tested in HEK293T cells; also: % is scaled to controls: 0 for no effect and ±100 for the full control effect; nearly all actives have a fitted effect of over 45% in size; luciferase light after 4 h
# MARV entry inh: blocks Marburg virus binding to or entry into cells; 1.8% of 300,000 active; Marburg virus pseudotyped entry inhibition, cell reporter; control for the full effect not named in the record; about a third of the inactives were read at about 46 µM; Potency, µM (doses to about 37.8 µM), for inactives: at the top dose activity change, negative = inhibition, most hits filed as inhibitors; active = well fitted inhibition curve with a large enough effect; inconclusive = small, poorly fitted or top-dose-only effect, or effect the other way; inactive = flat fitted curve, though single readings scatter; tested in HEK293 cells; about a fifth of its hits are not listed in these tables; also: % is scaled to controls: 0 for no effect and ±100 for the full control effect; luciferase read-out
# SARS PLP yeast: inhibitors of SARS-CoV papain-like protease in yeast; S. cerevisiae expressing SARS-CoV PLpro, growth rescue; control for the full effect not named in the record; Potency, µM (titrated, usually from 32.9 µM), inactives show at the highest dose activity, positive = growth rescue; 0.19% of 330,000 active; also: 0% is about no effect; nearly all actives have a fitted effect of over 55% in size; growth read by luminescence after 48 h
# Active calls of the source: *; ? = inconclusive; . = no result given; & = joins results of further samples; [ ] = remark or other dose. Unless noted, calls follow the shape of the dose curve; as a rule, active means well fitted rising curve with a large enough effect; inconclusive means small, poorly fitted or top-dose-only effect; inactive means no such curve, though single readings can be large or run the other way. Potency is read from the fitted curve at half-maximal effect.
SMILES,LASV entry inh,NS1 function inh,Cruzain noTriton,Cruzain Triton,RE007 growth inh,2A StopGo,MARV entry inh,SARS PLP yeast
O=C(O)CCCCCN1C(=O)C(O)=C(C(=O)/C=C/c2ccccc2)C1c1cccc([N+](=O)[O-])c1 (stereo not given),0%[46.1 µM],6%,.,.,-3%,-6%,-2%[46.1 µM],1%
Cc1ccc(C(=O)N/N=C\c2cc3c(cc2Br)OCO3)cn1,7%,-11%,.,.,-5%,1%,1%[46.1 µM],-2%
O=C(O)c1cccc(N=C2NC(=O)C(CO)(CO)S2)c1,7%,3%,.,.,5%,5%,0%,-4%
CS(=O)(=O)c1ccc(Cl)c(NC(=O)c2ccc3ccccc3c2)c1,2%,7%,-2%,0.6%,-15%,16%,16%,24%
COc1cccc(CNC(=O)CCCn2nc(C)c3sc4ccccc4c3c2=O)c1,7%[46.1 µM],.,-7%,-3.9%,.,-17%,9%[46.1 µM],.
CCCc1cc(C(N)=O)c(NC(=O)C2CCCO2)s1 (stereo not given),-2%,-2%,-9%,-6.6%,-24%,13%,10%,-2%
CSc1ccc(CNC(=O)Cn2nc(N3CCN(c4ccccc4)CC3)ccc2=O)cc1,-6%[46.1 µM],.,?,-3.8%,.,?,.,.
CC(C)Cn1c(=O)[nH]c2ccccc21,2%,-4%,4%,0.9%,4%,-3%,17%,4%
CC1(C(=O)NC2CCCC2)CCC(=O)N1Cc1ccccc1Cl (stereo not given),1%,-2%,-7%,1.1%,-5%,17%,-11%,-1%
CCOCCCN(C(=O)CCC(=O)Nc1cc(C)on1)C(C(=O)NC(C)(C)C)c1ccccc1Cl (stereo not given),.,4%,.,.,-18%,10%,4%[46.1 µM],3%
CC(C)Cn1cc(C(=O)N2CCN(c3cccc(Cl)c3)CC2)c2c3ccccc3n(C)c2c1=O,?,.,11%,-12%,.,-21%,?,.
NS(=O)(=O)c1cnccc1Nc1cccc(F)c1,6%,.,.,.,-1%,31%[activator],-10%[46.1 µM],.
COc1cccc(CNn2c(-c3cccc(C)c3)nc3ccccc3c2=O)c1,18µM*,-1%,5%,-0.9%,-8%,.,?,-18%
CCC1CN(C(=O)N2CCC(C(=O)NCc3ccco3)CC2)c2ccccc2O1 (stereo not given),14%[46.1 µM],-1%,7%,-1.3%,3%,8%&-22%,.,-1%
CS(=O)(=O)N(CC(=O)N1CCOCC1)c1cccc([N+](=O)[O-])c1,.,3%,.,.,-16%,15%,.,-1%
COc1ccc(C2C(=O)N(C3CCC(C)CC3)CC(=O)N2Cc2ccc(C)cc2)cc1OC (stereo not given),-26%[46.1 µM],.,?,0.2%,.,-8%,.,.
COc1ccc(N2CCN(S(=O)(=O)CCNC(=O)COc3cccc(OC)c3)CC2)cc1,2%&-3%[46.1 µM],9%,-4%,-2.0%,8%,-24%&6%,-1%&-1%[46.1 µM],-2%
COc1cc(C(=O)NCCSc2ccccc2)cc(OC)c1OC,20%[46.1 µM],-22%,.,.,-17%,-14%,-5%[46.1 µM],0%
Cc1cccc(-c2n[nH]c(=S)n2/N=C/c2ccc(C)o2)c1,-2%,?,-3%,-7.9%,-1%,-2%,17%,27%
CN(C)c1ccc(C(CNS(=O)(=O)c2ccccc2)N2CCc3ccccc32)cc1 (stereo not given),9%[46.1 µM],.,16µM*,-2.3%,.,1%,.,.
O=C(CSc1ncc(-c2ccc(F)cc2)n1Cc1ccco1)Nc1ccc2c(c1)OCO2,?,-53%,-16%,-5.1%,-1%,29%,?,.
CCc1ccc(-c2cc(C(=O)N/N=C/c3ccccn3)[nH]n2)cc1,.,.,.,.,38%,1%,-7%[46.1 µM],-5%
Cc1ccc(S(=O)(=O)N2CCC(C(=O)NNC(=O)c3ccccc3O)CC2)cc1C,-12%,.,.,.,1%,3%,8%,-2%
Cc1cccc(C)c1NC(=O)CNC(=O)C(C)N(C)CC(=O)Nc1ccc(F)cc1 (stereo not given),0%,.,.,.,2%,-11%,-10%,-1%
CCOc1ccc(Nc2c(S(=O)(=O)c3ccccc3)cnc3ccc(CC)cc23)cc1,.,.,8%,-3.2%,.,?,?,.
# (cont.)
SMILES,LASV entry inh,NS1 function inh,Cruzain noTriton,Cruzain Triton,RE007 growth inh,2A StopGo,MARV entry inh,SARS PLP yeast
CCOc1ccc2nc(N3CCCC(C(=O)NCCCN4C(C)CCCC4C)C3)sc2c1 (stereo not given),16%[46.1 µM],-4%,.,.,2%,35%[activator],?,-3%
CN(CC1CCCN(CCc2ccc(Cl)cc2)C1)C(=O)CC(F)(F)F (stereo not given),10%,-6%,.,.,-19%,-18%,?,-5%
CC(C)CO/C(=N/S(=O)(=O)c1ccccc1)c1ccccc1,-5%,9%,-6%,-1.1%,-1%,-14%,-5%,5%
CCOCCCNC(=O)C1CCCN(S(=O)(=O)c2cccc3nsnc23)C1 (stereo not given),-4%,?,.,.,-6%,-8%,3%[46.1 µM],-11%
COc1ccc(Cl)cc1NC(=O)c1nnn(CC(=O)Nc2cc(C)cc(C)c2)c1N,.,3%,.,.,10%,-2%,.,3%
COc1cccc(C(=O)N2CCN(C(=O)C3COc4ccccc4O3)CC2)c1 (stereo not given),2%[46.1 µM],-5%,.,.,7%,3%,1%[46.1 µM],-14%
ON1C2CCCCC2N(O)C1c1ccccc1C(F)(F)F (stereo not given),-7%,12%,4%,6.4%,17%,4%,5%,4%
CC(C)(C)[C@H]1C=C(C(=O)NCc2nc3ccccc3[nH]2)O[C@@H](OCCCCO)C1,.,2%,.,.,-10%,-16%,.,-3%
O=C(NCc1cccnc1)Nc1ccc(Cl)cc1Cl,.,-20%,.,.,15%,-12%,.,-5%
COc1ccccc1Cn1cc(C(=O)c2ccc(C)cc2)c(=O)c2cc3c(cc21)OCCO3,?,.,-7%,-1.6%,.,-24%,-15%[46.1 µM],.
Cc1ccc(NC(=O)c2ccc(Cl)nc2)cc1,.,-5%,.,.,-1%,64%[activator],.,-2%
Cc1cc(-c2nnc(SCCC(=O)Nc3ccccc3)o2)no1,-5%,-13%,.,.,0%,-25%,-18%,-3%
O=C(O)c1ccccc1NC(c1ccccc1)c1ccc(Cl)cc1 (stereo not given),.,-3%,.,.,-8%,-15%,.,-2%
COc1ccc(OC)c(/C=N/NC(=O)C(=O)N2CCCCCC2)c1,-19%,2%,.,.,10%,-1%,-4%,.
Cc1occc1C(=O)N/N=C/C=C/c1ccccc1,?,.,.,.,2%,20%,?,-1%
CCn1c(C)c(C(C)=O)c(N2CCC(C(N)=O)CC2)nc1=S,1%,4%,4%,-1.1%,13%,.,22%,.
CC(C)(C)C(=O)N1CCN(c2ccc(Cl)cc2[N+](=O)[O-])CC1,8%,-42%,5%,-3.4%,14%,-18%,?,-47%
CC(C)NC(=O)CSc1nc2ccccc2c(=O)n1Cc1ccc(C(=O)NC(C)C)cc1,22%[46.1 µM],.,-6%,-0.2%,.,-12%,.,.
CCn1c(SCC(=O)Nc2ccccc2C(=O)OC)nnc1-c1ccc(N)cc1,2%,?,14%,-2.1%,6%,5%,17%&17%,4%
Cc1ccc(CSc2nc3c(c(N(C)C)n2)CCCC3)cc1,-8%,-55%,-18%,-1.4%,-11%,-26%,?,-36%
CCN1CCN(C(c2cccnc2)c2cc(Cl)c3cccnc3c2O)CC1 (stereo not given),-8%,-57%,29%,1.1%,?,-20%,3%,-36%
O=C(c1cnn2c(C(F)F)cc(-c3ccccc3)nc12)N1CCN(Cc2ccc3c(c2)OCO3)CC1,-28%,-4%,.,.,-7%,28µM*,?,-12%
CCOc1cccc(CN2CCCC(C(=O)c3cccc(C(F)(F)F)c3)C2)c1O (stereo not given),?,-2%,.,.,-3%,-4%,?,0%
Cc1cc(C(=O)Nc2ccccc2C(=O)O)ccc1NC(=O)COc1cccc(C)c1C,.,-39%,.,.,0%,0%,.,-2%
Cc1ccc(-n2c(C)cc(/C=N\NC(=O)CC(=O)NC(C)C)c2C)cc1,?,6%,-4%,-6.0%,-3%,-8%,5%,5%
# (further entries)
SMILES,LASV entry inh,NS1 function inh,Cruzain noTriton,Cruzain Triton,RE007 growth inh,2A StopGo,MARV entry inh,SARS PLP yeast
CN1C(=O)C2(OCC(CO)([N+](=O)[O-])CO2)c2ccccc21 (stereo not given),.,?,.,.,5%,33%[activator],.,-1%
CC(=O)Oc1cccc(N2C(=O)C3CC=CCC3C2=O)c1 (stereo not given),-1%,1%,6%,1.5%,-20%,-5%,12%,-6%
CCN(CC)CCN1c2ccccc2Sc2ccccc21,?,1%,.,.,6%,-18%,?,-1%
CCOc1ccccc1CNC(=O)c1ccc(Cn2c(=O)c3cccn3c3cccnc32)cc1,3%[46.1 µM],.,-8%,-0.4%,.,-10%,.,.
COc1ccc(CCNC(=O)CSc2nc3ccccc3nc2Cc2ccc(C)cc2)cc1OC,-4%[46.1 µM],.,?,-5.5%,.,-3%,?,.
COc1cc(C2C(C(=O)/C=C/c3ccccc3)=C(O)C(=O)N2c2ccccn2)ccc1O (stereo not given),7%[46.1 µM],-1%,.,.,-19%,-20%,0%[46.1 µM],1%
Cc1ccc(NC(=S)N2CCN(C(=O)c3ccccc3)CC2)c(C)c1,0%,.,.,.,-5%,-5%,8%,2%
CCN(CC)c1ccc(NC(=O)CN2CCN(CC(=O)Nc3ccc(F)cc3)CC2)cc1,-6%,-1%,1%,2.1%,-2%,-19%,-10%,-2%
Cc1cccc(CCNC(=O)C2CCN(S(=O)(=O)N3CCOCC3)CC2)c1,.,4%,.,.,13%,-2%,.,8%
CC(=O)c1c(C)[nH]c(C(=O)Nc2nc(-c3ccccc3)c(C)s2)c1C,27%,7%,?,-17%,4%,-2%,?,0%
O=C(NCc1ccc2c(c1)CCN2C(=O)c1ccc(Cl)cc1)c1ccco1,?,.,-3%,-2.6%,.,5%,.,.
Nc1cc(S(=O)(=O)N2CCCCC2)ccc1Oc1ccc(Cl)cc1,-26%,.,.,.,3%,?,?,-10%
N#Cc1ccc(N2CCN(C(=O)c3cccs3)CC2)c(F)c1,25%,-1%,.,.,-3%,-12%,?,-9%
CCOC(=O)c1c(N)sc(C(=O)N2CCOCC2)c1C,-18%,4%,-13%,-1.4%,7%,11%,3%,-2%
